Screening results deposited in PubChem by several laboratories.
MT1-MMP act inh: blocks activation of human MT1-MMP | hit rate 0.061% among 360,000 | AID 651647 | GFP/RFP ratio change, % at 20 µM | HT1080 RFP-PRO-GFP cells, GFP/RFP ratio fluorescence, overnight; percent of plate control window, DMSO zero | P50281;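 active = GFP/RFP ratio change of at least 30% with cell ATP level not reduced by more than half and red fluorescence within 50% of control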; note: strong numbers were not always called active
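Test system: HT1080 RFP-PRO-GFP cells; Benchmarks: DMSO and RFP-L50D-GFP cell wells; Timing: cells overnight before dosing, compound overnight, 37 °C, 5% CO2; Compound: one 20 µM compound dose with 1% DMSO; Read-out: GFP/RFP fluorescence ratio.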
PABP FP inh: PABP-poly(A) binding inhibition; AID 2014; PABP-poly(A) RNA binding, fluorescence polarization; inhibition, % at 35 µM; hit rate 1% among 290,000;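 active = 50% or more with normal probe brightness, or confirmed in later tests; inconclusive = above 50% with abnormal brightness, or retests that disagree; inactive = below 50% or failed in later tests; about a fifth of its hits are not listed in these tables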;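 note: calls also rest on retests at 20 µM and on dose response follow-up; controls were probe without protein and protein plus probe with vehicle; some compounds called inactive have numbers as strong as hits; many hits fall short of the cut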
HIV Env fusion: HIV envelope-mediated fusion inhibition. HeLa-JRFL Env/CEM21 cell fusion, luciferase. inhibition, % at 12.3 µM. hit rate 1.1% among 360,000. AID 651610;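 active = mean replicate inhibition score of at least 50 and every replicate individually at or above 50; inconclusive = only one of the two criteria met; inactive = mean below 50 and not all replicates reaching 50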;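 note: 0% = plate neutral controls and 100% = maraviroc near 300 nM; one replicate is shown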
CSC inhib: blocks cancer stem cells | cancer stem cell-like cells viability, luminescence | inhibition, % at 7.5 µM | hit rate 1.1% among 300,000 | AID 2717;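 active = mean at 75% or more and at least half the replicates too; inconclusive = mean and replicates disagree; tested in HMLE shEcad cells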;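 note: 0% = median of negative and 100% = median of positive control wells; the first replicate is given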
Yeast UUG start: alters start codon recognition fidelity in yeast; S. cerevisiae UUG-firefly luciferase reporter, luminescence/redox ratio; activity score, % at 18.7 µM; hit rate 0.13% among 350,000; AID 602363;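 active = replicate mean at a twofold rise or more, about +100% in these data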;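 note: firefly luciferase made from a UUG start codon reports start codon fidelity; reporter light over untreated wells divided by growth signal over untreated wells; some hits fall short of that in this replicate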
Rce1 inhib: inhibitors of yeast Ras-converting enzyme. AID 2563. yeast membranes, quenched prenylated peptide cleavage fluorescence. calls only. hit rate 0.27% among 290,000;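 active = fall in fluorescence gain of 50% or more versus controls, with final raw signal at or below 3038400; inconclusive = same 50% fall but final raw signal above 3038400; inactive = fall in fluorescence gain under 50%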;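 note: plate controls were neutral control wells for no effect and wells lacking membranes for full effect; tested at 10 µM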
Target sequence (Q03530 whole entry, looked up): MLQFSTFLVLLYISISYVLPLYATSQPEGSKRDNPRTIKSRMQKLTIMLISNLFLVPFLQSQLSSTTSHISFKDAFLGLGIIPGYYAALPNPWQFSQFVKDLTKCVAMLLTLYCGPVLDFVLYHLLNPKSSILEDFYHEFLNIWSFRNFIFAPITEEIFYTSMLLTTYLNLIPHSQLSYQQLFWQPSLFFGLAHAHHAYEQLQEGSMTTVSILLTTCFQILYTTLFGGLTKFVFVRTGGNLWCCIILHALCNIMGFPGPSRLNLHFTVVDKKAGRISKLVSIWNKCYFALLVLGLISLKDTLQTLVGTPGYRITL
eIF4H FP inh: inhibitors of RNA binding by human eIF4H | hit rate 0.94% among 290,000 | AID 2012 | inhibition, % at 35 µM | Q15056 | eIF4H fluorescence polarization binding assay;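 active = 50% or more with normal probe brightness, or confirmed in later tests; inconclusive = above 50% with abnormal brightness, or retests that disagree; inactive = below 50% or failed in later tests; about a fifth of its hits are not listed in these tables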;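 note: calls also rest on retests at 20 µM and on dose response follow-up; 0% = protein and probe with vehicle and 100% = probe without protein; strong numbers were not always called active; many hits fall short of the cut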
MT1-MMP act inh RFP: second read-out of MT1-MMP act inh, no call of its own (marks repeat the call); RFP signal change, %; measured here: RFP expression control read;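 0 = vehicle wells; hits needed this value within 50% of zero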
The depositor's hits bear a star; i = inactive; u = inconclusive; x = not tested or not shown; & = joins results of further samples; [ ] = another dose, or the depositor's remark. Not a hit list. About 3% of those tested had a hit in this group.

Each structure is followed by: MT1-MMP act inh | MT1-MMP act inh RFP | PABP FP inh | HIV Env fusion | CSC inhib | Yeast UUG start | Rce1 inhib | eIF4H FP inh
1	O=C(COc1ccccc1/C=C1\SC(=O)NC1=O)Nc1ccc(F)cc1
→ 3.3 | -4.2 | -7.0 | 8.8 | 23.0 | x | i | 5.8
2	CCCCn1c(N)c(N(CCOC)C(=O)c2ccc(N3CCCC3=O)cc2)c(=O)[nH]c1=O
→ 0.4 | 0.5 | x | 3.3 | -16.1 | 4.7 | x | x
3	C[C@H]1CN([C@@H](C)CO)C(=O)CCCn2cc(nn2)CO[C@@H]1CN(C)C(=O)c1ccc(N2CCN(C)CC2)cc1
→ 0.4 | 4.3 | x | -12.9[16.7 µM] | x | 2.0&-6.5 | x | x
4	Cc1cc(N/N=C/c2ccc(O)cc2)nc(NS(=O)(=O)c2ccccc2)n1
→ -4.2 | 1.2 | -1.3 | u | 0.1 | -11.6 | i | 37.5
5	O=C(O)C1=CCC=CC1C(=O)O (stereo not drawn)
→ -2.8 | 6.1 | x | 7.9 | x | -18.3 | x | x
6	CCOc1ccc(Cl)cc1S(=O)(=O)N1CCC(C(=O)NCc2ccco2)CC1
→ -2.7 | -0.3 | -3.8 | -0.8 | -7.5 | 2.0 | i | -7.0
7	CC(C)C(O)(C#CCN1CCCCCC1)c1ccccc1 (stereo not drawn)
→ 4.3 | -2.3 | -1.0 | -4.8 | 5.8 | 10.9 | i | -9.0
8	Cc1ccccc1NC(=S)NC(=O)CCc1ccccc1
→ 13.6 | -2.0 | -10.7 | -27.7 | -1.3 | -0.2 | i | -12.6
9	Cc1ccccc1Cn1ccc(NC(=O)c2cnn3cccnc23)n1
→ -1.9 | -2.8 | 0.3 | x | -12.9 | -11.8 | i | 2.5
10	CN(C)CCCNC(=S)/N=c1\sccn1Cc1ccccc1Cl
→ -3.0 | -4.7 | -4.8 | -6.4 | -7.3 | -20.9 | i | -7.0
11	COc1ccc(-c2cc(-c3ccccc3O)[nH]n2)cc1OC
→ 7.2 | 2.8 | -4.4 | i | 10.7 | -13.7 | i | 12.0
12	C/C(N)=C(/C#N)C(=O)COC(=O)c1cc(-c2cccc3ccccc23)nc2ccccc12
→ 0.3 | 4.9 | 9.5 | 7.5 | -11.2 | x | i | u
13	CCOC(=O)c1ccc(NC(=O)C(=O)NCc2ccco2)cc1
→ -0.7 | 2.0 | 7.9 | 11.1 | 3.9 | x | i | -5.4
14	O=C(O)CC(C(=O)Nc1ccc(Cl)c(Cl)c1)C1CCCO1 (stereo not drawn)
→ 2.1 | 1.0 | -2.6 | x | 2.6 | -5.3 | i | -2.5
15	O=C1NC2(CCN(Cc3ccccc3)CC2)Oc2ccccc21
→ 1.7 | 1.6 | 15.2 | -7.8 | x | x | i | -8.9
16	O=C1CCN(CCc2ccccc2)CCN1[C@H](CO)Cc1ccccc1
→ 1.8 | 2.9 | 6.2 | -10.2 | 5.2 | -23.0 | i | -4.3
17	O=C(NCc1ccccc1Cl)c1ccc[nH]1
→ -1.7 | -2.0 | -3.9 | 1.7 | -8.5 | -8.8 | i | -0.4
18	CCOC(=O)C1CCN(C(=O)c2ccc(OCC(=O)N3CCOCC3)c(OC)c2)CC1
→ 0.6 | 0.2 | x | 1.9 | -12.6 | x | i | x
19	CN(CC(=O)NCCc1ccc(S(N)(=O)=O)cc1)CC(=O)Nc1ccccc1C(F)(F)F
→ 1.8 | -0.9 | x | 0.7 | 8.1 | -13.3 | x | x
20	CC(=O)c1cn(CC(=O)Nc2ccccc2Cl)c2ccccc12
→ -2.3 | -22.3 | 4.6 | 22.2 | 4.8 | -31.1 | i | 4.4
21	O=C(NCc1cc(C(F)(F)F)ccc1Cl)c1cccc2c1C(=O)c1ccc(N3CCC(N4CCCCC4)CC3)cc1S2(=O)=O
→ -27.6 | 1.3 | x | 15.9 | x | -8.1 | x | x
22	CC(=O)c1ccc(-n2c(CCC(=O)O)ccc2-c2ccccc2)cc1
→ 4.3 | 8.6 | 1.8 | -3.5 | -11.0 | 2.9 | i | -13.0
23	CC(C)C[C@H]1CNC(=S)N1C[C@H]1CCCN1C[C@H](CC(C)C)N1C[C@H](CC(C)C)N(CCc2ccccc2)C1=S
→ -10.2 | -22.7 | x | -8.8 | x | -14.7 | x | x
24	CCn1c(O)c(N=NC(=O)C(O)c2ccccc2)c2ccccc21 (stereo not drawn)
→ -2.9 | 0.3 | 4.9 | -7.2 | -17.4 | -7.3 | i | 2.0
25	CCOc1ccccc1/C=N/NC(=O)Cc1csc(Nc2cccc(C(F)(F)F)c2)n1
→ 2.0 | -4.6 | -13.2 | x | 2.5 | -18.5 | i | -12.0
26	CCc1nn(CC(=O)Nc2ccc(Br)c(C)c2)c(=N)s1
→ 1.0 | -1.9 | 2.9 | 3.4 | -3.4 | x | i | 1.5
27	Cc1ccc(C)c(S(=O)(=O)N2CCN(C(=O)Cc3ccc(S(=O)(=O)N4CCOCC4)s3)CC2)c1
→ -3.0 | -8.2 | x | 14.0 | -9.4 | x | i | x
28	CCc1ccc(S(=O)(=O)N/N=C\c2cn(CC(N)=O)c3ccccc23)cc1
→ 0.6 | 0.2 | 0.1 | -2.5 | x | 4.9 | i | -1.9
29	COC(=O)c1c(NC(=O)c2ccccc2)sc2c1CC(C)(C)NC2(C)C
→ 4.3 | 2.0 | 6.8 | 12.7 | -5.0 | 15.9 | i | -7.6
30	Clc1cccc(-c2nc3ccc(Br)cn3c2Cc2ccccc2)c1
→ -3.0 | 2.9 | x | -52.4 | x | 27.9 | x | x
31	Cc1nnc(SCc2ccc(CC(=O)O)cc2)o1
→ 3.5 | -2.4 | -1.8 | -24.2 | 1.6 | -22.3 | i | 6.0
32	CCOc1ccc(NC(=O)CN(C)C(=O)c2cc(-c3cccs3)nn2-c2ccccc2)cc1OCC
→ 2.8 | 1.2 | x | -24.6 | -12.1 | -16.8 | x | x
33	Cc1ccc(Cc2nnc3n(-c4ccccc4)nc(C(=O)c4ccccc4)n3c2=O)cc1
→ -1.7 | -9.7 | -12.8 | -171.6 | 14.2 | -7.7 | i | -9.6
34	CCCCCCCCCCCCN1[C@@H](CC(=O)O)c2cc(F)ccc2S1(=O)=O
→ 2.4 | -0.7 | x | 16.7 | -7.1 | 34.5 | i | x
35	COc1cc(C)c(NC(=O)COc2ccc3c(c2)CCC3)cc1OC
→ 1.1 | -0.8 | x | u | x | -3.5 | x | x
36	Cc1ccccc1OCCn1c(=O)sc2ccccc21
→ -4.3 | -4.1 | -6.1 | x | 6.7 | -20.0 | i | 3.0
37	Nc1ccc(N2CCCCC2)c(S(=O)(=O)Nc2ccc(Cl)cc2)c1
→ 2.9 | -1.9 | -1.9 | 21.0 | 5.6 | -13.2 | i | -11.9
38	CCCCCc1ccc(-c2nnc(N)s2)cc1
→ 11.6 | 3.7 | -2.1 | 9.2 | -2.9 | x | i | -10.2
39	Cc1ccccc1NS(=O)(=O)c1ccc(C(=O)N2CC(C)OC(C)C2)cc1 (stereo not drawn)
→ -0.5 | -0.8 | x | x | -5.9 | -3.7 | i | x
40	COc1ccc(C2=NN(C(N)=S)C(c3ccccc3)C2)cc1 (stereo not drawn)
→ 5.0 | -4.0 | -13.1 | 0.4 | 4.5 | x | i | -0.4
41	O=C(CSc1ccc(-c2ccco2)nn1)NCc1ccccc1Cl
→ -2.6 | -1.2 | -18.1 | -11.8 | x | 1.8 | i | 1.0
42	COc1ccc(/C=N/N2C(C)CCCC2C)cc1OC (stereo not drawn)
→ -0.5 | 4.0 | -2.6 | -9.1 | 2.8 | -11.1 | i | 4.8
43	CCOCCCNC(=O)CN(c1cc([N+](=O)[O-])ccc1OC)S(C)(=O)=O
→ 0.4 | -0.8 | 0.1 | -0.4 | -11.2 | x | i | -3.5
44	Cc1ccc(NC(=O)CN2C(=O)NC3(CCc4ccccc43)C2=O)cc1S(=O)(=O)N1CCCCC1 (stereo not drawn)
→ 12.4 | 0.3 | x | -13.8 | 0.1 | 4.2 | i | x
45	Cc1cc(Nc2ccc3c(c2)OCCO3)c2cc(Cl)ccc2n1
→ -1.9 | -2.1 | -0.3 | 5.5 | 24.9 | x | i | 2.1
46	C=CCOC(=O)COc1ccc2c(C)c(C)c(=O)oc2c1C
→ 4.6 | 2.4 | 7.5 | -4.8 | -18.1 | -7.0 | i | 9.3
47	COc1ccccc1N1CCN(C(=O)/C=C/c2ccc3c(c2)OCO3)CC1
→ 3.3 | 2.0 | -4.9 | -42.0 | -6.5 | -6.0 | i | -6.8
48	CC(=O)Nc1c(Br)cc(N2C(=O)CCC2=O)cc1Br
→ -2.4 | 1.2 | -2.3 | -37.0 | 0.7 | -16.6 | i | 4.1
49	O=C(CCc1ccccc1)OCC(=O)c1ccc(Br)cc1
→ -2.1 | 2.7 | -6.4 | -7.4 | -1.8 | x | i | -6.3
50	O=S(=O)(c1ccc(F)cc1)N1CCC(N2CCCCCC2)CC1
→ 1.9 | -6.9 | -7.9 | -14.5 | 42.9 | -9.0 | i | -12.7
51	O=C(NCCCN1CCCC1=O)c1cccc(S(=O)(=O)Nc2ccc(F)cc2)c1
→ -1.1 | 1.4 | x | x | -7.1 | -9.0 | x | x
52	COc1ccccc1C(=O)NCc1nnc(SC(C)C(=O)Nc2nccs2)n1C (stereo not drawn)
→ -2.5 | 1.7 | 6.7 | -6.0 | -6.9 | -4.6 | x | 5.3
53	Cc1cccc(NC(=O)Nc2ccc(F)cc2)n1
→ -6.6 | -4.5 | -8.7 | -31.4 | x | -25.4 | i | -10.3
54	COc1ccc(N(CC(=O)NCc2ccco2)C(=O)CCC(=O)Nc2nccs2)c(OC)c1
→ -4.5 | 2.5 | 3.4 | -5.1 | 2.1 | -15.7 | i | -10.2
55	COc1cc2cc(C[C@H](C)O)oc(=O)c2cc1OC
→ 3.5 | 1.3 | x | -10.9 | -18.4 | 0.9 | x | x
56	CNc1ccc2c3c(cccc13)C(=O)N(C)C2=O
→ -78.7 | -0.6 | u | -25.5 | 6.1 | x | i | u
57	Cc1c(C)n(-c2ccc(Cl)cc2)c2ncnc(N)c12
→ -0.5 | -3.4 | 0.9 | 20.6 | -10.5 | -12.2 | i | 2.3
58	COc1ccc2[nH]c(=O)c(CN(CCCN(C)C)C(=O)Nc3ccc(F)cc3)cc2c1
→ -2.2 | 3.6 | 5.4 | x | -8.9 | x | i | 24.6
59	COc1ccc(NC(=O)CCSc2nnc(C)s2)cc1
→ 2.8 | -5.4 | 11.8 | -103.9 | 16.0 | -16.4 | i | -6.0
60	O=C(CSCc1ccccc1)Nc1cccc(F)c1
→ 4.2 | 2.5 | 8.6 | -6.5 | 2.0 | x | i | 1.9

Continuation:
Each structure is followed by: MT1-MMP act inh | MT1-MMP act inh RFP | PABP FP inh | HIV Env fusion | CSC inhib | Yeast UUG start | Rce1 inhib | eIF4H FP inh
61	Cc1c(NC(=O)c2ccc(C(C)(C)C)cc2)cccc1[N+](=O)[O-]
→ 4.2 | -6.4 | 3.5 | -1.5 | x | -3.6 | i | -9.1
62	COc1cccc(NC(=O)C2CCC(CNS(=O)(=O)c3ccc4c(c3)CC(C)N4C(C)=O)CC2)c1 (stereo not drawn)
→ 7.2 | -13.4 | 5.0 | -7.8 | -13.3 | -34.3 | i | 1.4
63	CCN(CC)C(=O)NC1CC2CCCC(C1)N2Cc1ccccc1 (stereo not drawn)
→ 0.7 | 3.0 | -2.1 | -64.5 | -11.1 | -21.9 | i | 1.8
64	CCn1nc(C(=O)NC2=NCCS2)c2ccccc2c1=O
→ -0.4 | 2.5 | -8.3 | -26.3 | -20.6 | -13.9 | x | -13.7
